Assay outcomes from PubChem.
VDR inh: blocks the human vitamin D receptor; VDR-SRC2-3 peptide fluorescence polarization, 2 h; Potency, µM, inactives show max response, negative = inhibition, hits mostly inhibitors; 0.93% of 400,000 active; AID 504847; active means well fitted inhibition curve with a large enough effect; inconclusive means small, poorly fitted or top-dose-only effect, or another doubt; inactive means no such curve, though single readings can be large or run the other way; further: series mostly up to about 120 µM
Target sequence (P11473 whole entry, looked up): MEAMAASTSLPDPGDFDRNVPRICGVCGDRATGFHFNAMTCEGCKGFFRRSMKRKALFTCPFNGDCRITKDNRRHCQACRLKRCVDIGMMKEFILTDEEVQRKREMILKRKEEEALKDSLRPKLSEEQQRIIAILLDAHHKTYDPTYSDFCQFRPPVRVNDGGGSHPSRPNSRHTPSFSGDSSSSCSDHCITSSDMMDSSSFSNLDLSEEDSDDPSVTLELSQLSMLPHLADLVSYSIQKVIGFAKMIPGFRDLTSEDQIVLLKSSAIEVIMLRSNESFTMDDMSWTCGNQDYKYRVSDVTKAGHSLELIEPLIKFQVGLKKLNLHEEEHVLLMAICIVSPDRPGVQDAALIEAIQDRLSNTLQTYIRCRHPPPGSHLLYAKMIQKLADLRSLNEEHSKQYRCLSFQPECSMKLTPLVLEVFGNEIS
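Signal is fluorescence polarization, reporting how far test compounds block the interaction of VDR with the SRC2-3 coregulator peptide after a 2 h room-temperature incubation.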
Starred values were filed as active, the others as inactive; ? = inconclusive; & = joins results of further samples. On the % scale 0 is the no-effect control and ±100 the full control effect; potency means the concentration at half of the fitted maximal effect. The list is partial. The share of hits here may be higher or lower than overall.

VDR inh | Structure
-18% | COC(=O)C1(C)NC(c2ccc(OC)cc2)C2C(=O)N(c3ccccc3)C(=O)C21 (centres undefined)
-2% | CC(=O)N1CCN(c2ccc([N+](=O)[O-])cc2)CC1
-27% | CCCNC(=O)CSc1nnc(-c2ccccc2Br)n1-c1cccc(C(F)(F)F)c1
-4% | COC/C=C/C1=CC2=CC(=O)C(C)(OC(=O)CCc3ccccc3)C(=O)C2=CO1 (centres undefined)
15% | O=C1CC(N2CCN(C/C=C/c3ccccc3)CC2)C(=O)N1CCc1ccccc1 (centres undefined)
-11% | Cc1cc(C)cc(OCC(O)CN2C(=O)NC(C)(C)C2=O)c1 (centres undefined)
-8% | Cc1ccc(C(=O)Nc2cccnc2Cl)cc1Cl
7% | Cc1cc(NC(=O)CSc2ncnc3ccccc23)no1

Following part
VDR inh | Structure
-15% | CCCNC(=O)C1CC(c2ccc(C(F)(F)F)cc2)=NO1 (centres undefined)
-11% | CC[C@@H](C)[C@@H](C(=O)Nc1ccc(C)cc1)N1Cc2ccccc2C1=O
-7% | COc1ccc(S(=O)(=O)N2CCC(C(=O)Oc3cccc(C)c3)CC2)cc1OC
-12% | c1ccc(Nc2nc3ccccc3n3cnnc23)cc1
6% | CN(C)CCNC(=O)c1cc2cc(Br)ccc2oc1=O
-7% | COc1ccc(Cc2nnc(NC(=O)c3ccc(OC)cc3OC)s2)cc1
-2% | CCCn1c(=O)c2ccccc2n2c(SCCOc3ccccc3F)nnc12
10% | O=[N+]([O-])c1ccccc1S(=O)(=O)Nc1ccc(-c2ccc3nncn3n2)cc1

(continued)
VDR inh | Structure
3% | CCOC(=O)c1ccc(NC(=O)CCn2c(=O)c3cccn3c3ccccc32)cc1
-1% | S=c1[nH]nc2sc3ccccc3n12
-5% | OCC[C@@H]1C[C@H](O)[C@@H](O)[C@@]2(Cc3ccccc3CO2)O1
21% | O=C(CCc1nnc(-c2ccc(-c3ccccc3)cc2)o1)N1CCCCC1
-8% | CCOc1ccc(-c2nnn(CC(=O)N3CCN(c4ccc(OC)cc4)CC3)n2)cc1OCC
-4% | CCC(=O)N1C(C(=O)NCc2ccc(OC)cc2)CSC1c1ccc(OC)cc1 (centres undefined)
2% | CCOC(=O)c1ccc(NS(=O)(=O)c2cc(-c3nnnn3C(C)C)ccc2OC)cc1
-13% | CN(C)C(CNS(=O)(=O)c1ccc2ccccc2c1)c1ccccc1 (centres undefined)

(more compounds)
VDR inh | Structure
-3% | O=C(Nc1ccc(Cl)cc1)c1cccc(NC2=NC3CS(=O)(=O)CC3S2)c1 (centres undefined)
-9% | Cc1c(NC(=O)C(C)OC(=O)CCOc2ccccc2)c(=O)n(-c2ccccc2)n1C (centres undefined)
-2% | O=C(Nc1nc(N2C(=O)c3ccccc3C2=O)n(-c2ccccc2)n1)c1ccccc1
-5% | COc1ccc(NC(=O)Cn2c(=O)n(Cc3ccco3)c(=O)c3sc4ccccc4c32)c(OC)c1
-20% | CS/C(=C\[N+](=O)[O-])Nc1ccc(C)cc1
3% | CCOC(=O)C1=C(C)NC(=O)NC1c1ccc(Br)s1 (centres undefined)
-4% | COc1ccc(C2C=C3CNS(=O)(=O)C3CC2OC(=O)c2cccs2)cc1 (centres undefined)
13% | Cc1cc(C)nc(Nc2nc3ccccc3[nH]2)n1

(cont.)
VDR inh | Structure
-14% | C=CCn1c(COc2cccc3cccnc23)nnc1SCC(=O)O
-7% | COc1ccc(C(=O)NCC(=O)OCC(=O)NC2CCCCCC2)cc1OC
12% | O=C(CN1C(=O)C(c2ccc(F)cc2)=NC12CCCC2)Nc1ccc(F)cc1
-18% | COc1ccc(C(=O)/C=C/c2ccccc2OC)c(OC(=O)c2ccc([N+](=O)[O-])cc2)c1
-11% | Cc1oc(-c2ccc(Cl)cc2)nc1CN1CCCC(C(=O)N2CCOCC2)C1 (centres undefined)
-6% | COc1ccc(C2/C=C\CN(S(=O)(=O)CC34CCC(CC3=O)C4(C)C)CC(=O)N2Cc2ccc(F)cc2)cc1 (centres undefined)
5% | CC(=O)c1cc(-c2ccc(F)cc2)n(CC(=O)NCc2ccc(C)cc2)c1C
-13%&-2% | COc1cccc(NC(=O)C2CCCN2S(=O)(=O)c2ccc3c(c2)n(C)c(=O)c(=O)n3C)c1 (centres undefined)

(list continues)
VDR inh | Structure
-11% | Cc1ccc(C)c(NC(=O)C2CCCN(c3cnccn3)C2)c1 (centres undefined)
3% | Oc1c(Cl)cc(Cl)cc1CNc1nccs1
? | Cc1c(C#N)c(=O)c(-[n+]2ccccc2)c([S-])n1-c1ccc(Cl)cc1
-4% | c1ccc(-n2ncc3c(N4CCCC4)ncnc32)cc1
13% | Cc1c(C(=O)NC2CCN(Cc3ccccc3)C2)oc2ccc(Br)cc12 (centres undefined)
-14% | Cc1ccc(NS(=O)(=O)c2ccc(OCC(=O)NCc3ccncc3)cc2)cc1
-2% | COc1ccc(N2C(=O)CC(n3c(CCCCO)nc4ccccc43)C2=O)cc1 (centres undefined)
4% | CC(C)CC(NC(=O)c1ccccc1NC(=O)c1ccccc1)C(=O)O (centres undefined)

Continuation.
VDR inh | Structure
3% | O=C(NCCc1ccccc1)C(=O)NCC1OCCN1S(=O)(=O)c1cc(F)ccc1F (centres undefined)
-1% | O=C1CSC(c2ccc(F)cc2)N1c1c(F)cccc1F (centres undefined)
-3% | CCC1(C(=O)O)NC(c2cc(OC)ccc2O)C2C(=O)N(Cc3ccccc3)C(=O)C21 (centres undefined)
13% | O=C(O)Cc1c(C(=O)O)nnn1-c1ccc(Cl)cc1Cl
-12% | O=C(NCc1ccc(F)cc1)c1cccnc1
-14% | COc1ccc([N+](=O)[O-])cc1NC(=O)C(C)OC(=O)c1ccccc1C(=O)c1ccc(Cl)cc1 (centres undefined)
-10% | Cc1cc(C)cc(N(CCC#N)C(=O)COC(=O)C2=COCCO2)c1
-10% | Cc1cccc(-c2oc3ccccc3c2-c2ccc3c(c2)OCO3)c1

Other structures:
VDR inh | Structure
5% | COc1cc(CC(=O)Nc2ccccc2N2CCOCC2)cc(OC)c1OC
-11% | CCc1nn(CCCC(=O)NCc2ccc(OC)c(OC)c2)c(=O)c2cc3occc3n12
-10% | CC(NC(=O)Cc1cccs1)c1ccccc1 (centres undefined)
-15% | Cc1cc(C)n(CCCNC(=O)c2ccc3c(c2)NC(=O)CS3)n1
-9% | CCOC(=O)N1CCC(NC(=O)CCc2c(C)nc3ncnn3c2C)CC1
-15% | CN(C(=O)CSc1nc2ccccc2s1)c1c(N)n(Cc2ccccc2)c(=O)[nH]c1=O
-19% | Cc1cccc(C)c1NC(=O)CCCSc1nnc(-c2ccco2)o1
? | Cc1ccc(CNC(=O)CN(c2cccc([N+](=O)[O-])c2)S(C)(=O)=O)cc1

More compounds:
VDR inh | Structure
-17% | CC1(c2ccccc2)NC(=O)N(CC#N)C1=O (centres undefined)
20% | O=C(Cc1cccs1)N1CCN(c2nc(-c3ccc(Cl)cc3)cs2)CC1
9% | COc1ccc(-c2nnc(-c3ccc(OCC(C)C)cc3)o2)cc1
3% | O=C(CCn1cnc2onc(-c3ccc(F)cc3)c2c1=O)N1CCN(c2cccc(Cl)c2)CC1
4% | COc1ccc(CNC(=O)c2cc3cccc(OC)c3oc2=N)cc1
10% | CC(=O)Nc1sc(C)c(C)c1C(=O)Nc1ccc(C)cc1
-12% | COc1ccccc1N1CCN(C(=O)Cn2ncc3c2-c2cc(C)ccc2OC3)CC1
0% | CCC(C)NC(=O)CN1C(=O)c2cccnc2Sc2ccccc21 (centres undefined)

Going on with the list.
VDR inh | Structure
5% | CN(C)S(=O)(=O)c1cc(S(=O)(=O)N(C)C)c(Cl)cc1N
-10% | Cc1ccc(OCCSc2nc3ccccc3n2CCC(=O)O)cc1C
-12% | Cc1cc(C)cc(NC(=O)C2CCN(c3nccs3)CC2)c1
13% | Cc1ccc(-c2csc3ncnc(NCCC(=O)O)c23)cc1C
-3% | O=C(COC(=O)Cc1c(F)cccc1Cl)NC(=O)Nc1ccccc1F
-11% | COc1cc(CCC(=O)OCC(=O)Nc2c(C)cccc2C(C)C)cc(OC)c1OC
10% | NC(=O)c1sc2nc(N3CCCCC3)c3c(c2c1N)CCCC3
-10% | CCN(CCn1cccn1)C(=O)C1CCC(=O)N(CC2CCCCC2)C1 (centres undefined)

New compounds follow.
VDR inh | Structure
-8% | O=C(N/N=C\c1ccc(Br)o1)C1COc2ccccc2O1 (centres undefined)
1% | CCCCC(=O)Nc1ccc(NC(=O)c2cccnc2)cn1
6% | COc1cccc(CNC(=O)c2cccc(S(=O)(=O)N3CCN(Cc4ccccc4)CC3)c2)c1
-12% | CCOc1ccc(S(=O)(=O)N2CCN(C(=O)c3oc4ccc(OC)cc4c3C)CC2)cc1
5% | CCC(=O)Nc1cccc(C(=O)OC)c1
15% | CCc1ccccc1N(CC)C(=O)c1c(C)oc2ncnc(N3CCOCC3)c12
-8% | O=C(CSCc1ccc(Cl)cc1)Nc1ccc(Br)cc1C(=O)O
? | CCOC(=O)N1CCN(C2=C(NS(=O)(=O)c3ccc(C)cc3)C(=O)c3ccccc3C2=O)CC1

Entries shown so far with a COOH group (seven):
VDR inh | Structure
-14% | C=CCn1c(COc2cccc3cccnc23)nnc1SCC(=O)O
4% | CC(C)CC(NC(=O)c1ccccc1NC(=O)c1ccccc1)C(=O)O (centres undefined)
-3% | CCC1(C(=O)O)NC(c2cc(OC)ccc2O)C2C(=O)N(Cc3ccccc3)C(=O)C21 (centres undefined)
13% | O=C(O)Cc1c(C(=O)O)nnn1-c1ccc(Cl)cc1Cl
-10% | Cc1ccc(OCCSc2nc3ccccc3n2CCC(=O)O)cc1C
13% | Cc1ccc(-c2csc3ncnc(NCCC(=O)O)c23)cc1C
-8% | O=C(CSCc1ccc(Cl)cc1)Nc1ccc(Br)cc1C(=O)O

Continuation:
VDR inh | Structure
? | CCOc1ccccc1NC(=O)c1ccc2c(c1)C(=O)N(CC(C)C)C2=O
6% | Cc1ccc(CNC(=O)CCCn2nc(C)n3c(cc4sccc43)c2=O)cc1
-9% | Nc1nc(Nc2ccccc2F)nc(NCc2ccccc2)c1[N+](=O)[O-]
18% | CC(CNS(=O)(=O)c1ccccc1)Sc1nncn1C (centres undefined)
-5% | Cc1cc(OCCCC(=O)NNC(=O)c2ccncc2)ccc1Cl
2% | CCN(CC)CCNC(=O)Nc1ccc2c(c1)N(Cc1ccccc1)C(=O)c1ccccc1S2
-2% | COC(=O)N1CCC2(CC1)CN(c1ccncc1)C2
-10%&4% | Cc1ccccc1NC(=O)CSc1ccc(-c2ccccn2)nn1

Continuation.
VDR inh | Structure
-8% | CCN(c1ccccc1)S(=O)(=O)c1cc(C(=O)NCc2ccco2)ccc1C
-5% | Brc1cccc(C2CC(c3ccccc3)n3nnnc3N2)c1 (centres undefined)
-13% | Cn1c(O)c(N=NC(=O)CNC(=O)c2ccco2)c2ccccc21
3% | O=C(NCCSCc1ccccc1)c1ccc(F)cc1
-4% | CCOc1ccc(CCNC(=O)Cn2cccc2C(=O)c2ccccc2C)cc1OCC
-1% | O=C(Nc1ccc(Cl)cc1)c1ccc(S(=O)(=O)N2CCOCC2)cc1
-4% | Cc1ccc(CNC(=O)C2CCC(CNc3c(N4CCOCC4)c(=O)c3=O)CC2)cc1 (centres undefined)
? | COc1ccccc1CNC(=O)CCS(=O)(=O)Cc1ccc(C)cc1

The results go on.
VDR inh | Structure
3% | Cc1ccc2c(c1)CCCN2C(=O)c1ccoc1C
-14% | O=C(NCc1ccccc1)c1ncn(Cc2ccccc2)c1C(=O)NCc1ccccc1
1% | COc1c(Cl)cc(Cl)cc1CNCCSc1nnnn1C
19% | CCc1cc(=O)oc2c(C)c(OCC(=O)NCCCn3ccnc3)ccc12
-12% | CC1CN(c2ccc(NC(=O)c3ccco3)cc2C(=O)O)CC(C)O1 (centres undefined)
2% | CCN1CCN(Cc2c(O)ccc3c(C)c(-c4ccc(OC)cc4)c(=O)oc23)CC1
-4% | Cc1ccc(NC(=O)COC(=O)c2cc(Cl)cc(Cl)c2)c(Br)c1
-27% | Cc1ccccc1N(C(=O)c1snc(C(N)=O)c1N)C(C(=O)NCC1CCCO1)c1ccc(F)cc1 (centres undefined)

By substructure, the compounds so far with an NH in an aromatic ring.
VDR inh | Structure
-1% | S=c1[nH]nc2sc3ccccc3n12
13% | Cc1cc(C)nc(Nc2nc3ccccc3[nH]2)n1
-15% | CN(C(=O)CSc1nc2ccccc2s1)c1c(N)n(Cc2ccccc2)c(=O)[nH]c1=O

Exported in CSV form: 3 of the compounds above
canonical_smiles,VDR inh
Oc1c(Cl)cc(Cl)cc1CNc1nccs1,3%
Cc1c(C#N)c(=O)c(-[n+]2ccccc2)c([S-])n1-c1ccc(Cl)cc1,?
c1ccc(-n2ncc3c(N4CCCC4)ncnc32)cc1,-4%

Next part.
VDR inh | Structure
-2% | Cc1ccc2nc(-c3cccc(NC(=O)c4ccc(Br)o4)c3)oc2c1
-17% | O=[N+]([O-])c1ccccc1OCC(O)CN1CCN(CC(O)COc2ccccc2[N+](=O)[O-])CC1 (centres undefined)
-8% | O=C(CCC(C(=O)O)N1C(=O)c2ccccc2C1=O)Nc1ccccc1 (centres undefined)
6% | CCN1C(=O)/C(=C2\C=Cc3cc(C)ccc3N2CC)OC1=S
-20% | Cn1c(=O)cc(SCC(=O)NCCc2ccc(Cl)cc2)c2cc(Cl)ccc21
0% | CCc1ccc(N2CC(C(=O)Nc3nnc(CC)s3)CC2=O)cc1 (centres undefined)
-19% | Cc1c(C(=O)N(Cc2cccc(Br)c2)C2CCS(=O)(=O)C2)oc2ccccc12 (centres undefined)
-3% | C=CCOc1c(Br)cc(/C=C(\C#N)C(N)=O)cc1OC
-9% | CCOc1cccc(C(=O)NC(=S)Nc2cccc(C)c2)c1
-10% | Cc1cc(Nc2c(C)cccc2C)n2nc(C)nc2n1
-5% | O=C(NCc1csc(-c2cccs2)n1)Nc1ccc(F)cc1F
